# UbGFP stabilizer: ubiquitin-GFP accumulation via proteasome inhibition. Ubiquitin-GFP reporter cells, proteasome inhibition, GFP fluorescence; response scale: untreated = 0%, 10 µM MG-132 = 100%. Potency, µM (top dose mostly 45.9 µM), for inactives: at the top dose activation (GFP accumulation), actives largely listed as activators. 67,000 tested, under 10 active. AID 526; active means well fitted activation curve with a large enough effect, not every such curve was filed as active; inconclusive means small, poorly fitted or top-dose-only effect, or another doubt; inactive means no such curve, though single readings can be large or run the other way; further: potency means the concentration at half of the fitted maximal effect
#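 Reporter cells (U2OS, ubiquitin-G76V-GFP fusion) are plated overnight, then treated 4 hr at 37 °C with compound titrations from 46 uM down to 2.9 nM. Activity is scaled against untreated cells and 10 uM MG-132.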
# Tau fil binding: binders of human tau filaments | recombinant tau filaments, thioflavin S fluorescence, 15 h; filaments grown with octadecylsulfate alongside compound | hit rate 2% among 71,000 | Potency, µM (doses to about 57.1 µM), for inactives: top-dose activity change, negative = inhibition | P10636;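 further: potency means the concentration at half of the fitted maximal effect; on the % scale 0 is the no-effect control and ±100 the full control effect; actives lower thioflavin S fluorescence by blocking filaments or displacing dye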
#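 Thioflavine S fluorescence (ex 450, em 510 nm) reports filaments formed from 1 uM human tau plus 30 uM ODS over 15 h at 37 C (10 mM HEPES pH 7.4, 100 mM NaCl, 5 mM DTT); compounds displacing dye or blocking filaments lower signal.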
# Pol III holo inh: DNA polymerase III holoenzyme inhibition; reconstituted DNA polymerase III holoenzyme replication, biochemical; Potency, µM (titrated, usually from 57.1 µM), for inactives: at the highest dose activity change, negative = inhibition; hit rate 0.25% among 71,000; AID 603; further: potency means the concentration at half of the fitted maximal effect; on the % scale 0 is the no-effect control and ±100 the full control effect
#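 Reconstituted *E. coli* holoenzyme (0.35 nM Pol III, 1 nM beta, 154 nM SSB, 2 nM primase) was preincubated with compound for 15 min at RT. Synthesis on 1.4 nM ssM13Gori ran 35 min, then was stopped with PicoGreen/EDTA and read as dsDNA fluorescence.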
# ERK AVP block: inhibitors of vasopressin-stimulated ERK signaling pathway; Potency, µM (titrated, usually from 57.5 µM), for inactives: at the highest dose activity, negative = inhibition, actives largely listed as inhibitors; HEK293-V1b, vasopressin-stimulated pERK AlphaScreen; hit rate 0.99% among 72,000; further: potency means the concentration at half of the fitted maximal effect; on the % scale 0 is the no-effect control and ±100 the full control effect; nearly all actives have a fitted effect of over 55% in size
#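 V1b-HEK293 cells; cpd 30 min 37C; 25 nM vasopressin 5 min; lyse 10 min; AlphaScreen beads 5 hr RT. Normalized to DMSO basal and 25 nM vasopressin; AC50 by Hill fit.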
# CRE-bla Fsk: alters forskolin-stimulated CRE reporter signaling in CHO cells. CHO CRE-bla reporter (cAMP response element driving beta-lactamase), forskolin EC10, beta-lactamase ratio. Potency, µM (series often up to 38.2 µM), inactives show top-dose activity change, negative = inhibition, actives largely listed as activators. hit rate 2.5% among 71,000. AID 662; active means well fitted activation curve with a large enough effect in the signal ratio, with a control signal flat, not every such curve was filed as active; inconclusive means small, poorly fitted or top-dose-only effect, or effect the other way, or a change in a side signal; the % refers to the signal ratio; further: potency means the concentration at half of the fitted maximal effect; % of control where 0% means no effect
#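 Titrated compounds plus EC10 NKH 477 on CHO CRE-bla cells, 3 h, 37 °C. CCF4, 2 h RT. Ratio 460/530 nm → AC50.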
# 15-hLO inh: blocks human 15-lipoxygenase activity | Potency, µM (doses to about 57.1 µM), inactives show at the top dose activity change, negative = inhibition, actives largely listed as inhibitors | purified 15hLO-1, xylenol orange hydroperoxide absorbance | hit rate 1.4% among 74,000; further: potency means the concentration at half of the fitted maximal effect; on the % scale 0 is the no-effect control and ±100 the full control effect; nearly all actives have a fitted effect of over 55% in size
#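 Readout: Fe(III)-xylenol orange absorbance, 573-to-405 nm ratio as reaction progress. Enzyme 40 nM purified human 15hLO-1, substrate 50 uM arachidonic acid, 6 min RT after 15 min compound preincubation; Hepes pH 7.5 buffer with Triton X-100.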
# Hsp90 Hop PPI: changes Hsp90-Hop TPR2A binding signal, up or down; AlphaScreen TPR2A-His6 binding biotin-Hsp90 C-terminal peptide; Potency, µM (highest dose often 57 µM), for the others: top-dose activity change, negative = inhibition; hit rate 0.44% among 71,000; AID 595; active means well fitted curve in either direction with a large enough effect; inconclusive means small, poorly fitted or top-dose-only effect, or another doubt; further: potency means the concentration at half of the fitted maximal effect; on the % scale 0 is the no-effect control and ±100 the full control effect; many of its hits are not listed in these tables
# FLuc inh: blocks Photinus pyralis firefly luciferase activity. P08659. purified firefly luciferase, luminescence, 8 min. hit rate 2.2% among 72,000. Potency, µM (top dose mostly 57.1 µM), for inactives: top-dose activity change, negative = inhibition, actives largely listed as inhibitors. AID 411; further: potency means the concentration at half of the fitted maximal effect; on the % scale 0 is the no-effect control and ±100 the full control effect; nearly all actives have a fitted effect of over 40% in size
# Target sequence (P08659 whole entry, looked up): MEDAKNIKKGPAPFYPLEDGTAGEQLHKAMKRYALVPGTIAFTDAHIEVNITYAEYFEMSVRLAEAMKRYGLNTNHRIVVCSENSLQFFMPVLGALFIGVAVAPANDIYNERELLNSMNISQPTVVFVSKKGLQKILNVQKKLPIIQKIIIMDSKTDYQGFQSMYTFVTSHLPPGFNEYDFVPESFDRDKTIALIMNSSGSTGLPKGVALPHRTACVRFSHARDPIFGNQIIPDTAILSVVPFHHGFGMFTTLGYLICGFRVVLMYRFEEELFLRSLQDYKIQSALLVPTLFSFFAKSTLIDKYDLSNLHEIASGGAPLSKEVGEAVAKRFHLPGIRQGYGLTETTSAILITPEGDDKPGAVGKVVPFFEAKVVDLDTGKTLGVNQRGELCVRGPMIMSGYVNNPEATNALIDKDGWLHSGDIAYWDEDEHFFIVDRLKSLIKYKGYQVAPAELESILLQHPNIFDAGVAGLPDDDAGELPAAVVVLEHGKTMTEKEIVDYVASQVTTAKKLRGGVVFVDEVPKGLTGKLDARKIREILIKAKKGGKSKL
#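 Substrate buffer containing 10 uM ATP (pH 7.2 imidazole, Mg2+, KCl, detergent, BSA) is dispensed, compound pinned in, then luciferase/luciferin detector mix added. After 8 min at ambient temperature, light output is measured.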
# GFP derepression: derepresses silenced GFP locus in mouse C127i cells; mouse C127i GFP locus derepression, cytometry, 30 h; hit rate 0.09% among 68,000; AID 597; Potency, µM (series often up to 46.1 µM), inactives show top-dose GFP derepression (activation); further: % of control where 0% means no effect
#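 Locus derepression in mouse mammary C127i cells whose integrated CMV-GFP reporter is normally silent; GFP expression after 30 h compound treatment was quantified by counting fluorescent cells.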
# HBB splice mod: hemoglobin beta splicing modulation; HBB splicing reporter cell assay, activation; EGFP reporter with mutant IVS2-654 intron; response scale: normalised to 500 nM splice-correcting PNA; Potency, µM (titrated, usually from 46.1 µM), for the others: top-dose activation, hits mostly activators; hit rate 0.06% among 65,000; AID 925; further: potency means the concentration at half of the fitted maximal effect; 0% is about no effect
#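 Compounds were applied for 2 days to HeLa EGFP-654 cells, 500/well in Optimem with 2% FCS. The reporter's EGFP is disrupted by mis-splicing of beta-globin intron IVS2-654. Readout: summed well GFP fluorescence from 488 nm laser scanning; reference was 500 nM antisense […] 654 PNA.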
# Starred values were filed as active, the others as inactive; i = inactive; ? = inconclusive; . = no result given; [ ] = another dose, or the depositor's remark. Unless noted, the call rests on the fitted dose curve; in most records, active means well fitted curve in the direction sought with a large enough effect; inconclusive means small, poorly fitted or top-dose-only effect, or another doubt; inactive means no such curve, though single readings can be large; an effect the other way counts as inactive or inconclusive. Only part of the results is shown; rates above refer to the full screens.
1) Cc1ccccc1Nc1nc(CSc2nnc(-c3ccoc3C)n2C)cs1
2) CC(C)OCCCN1C(=O)c2[nH]nc(-c3ccccc3O)c2C1c1cccc(Cl)c1 (stereo not drawn)
3) CCOc1cc(C2/C(=C(/O)c3ccc(OC(C)C)cc3)C(=O)C(=O)N2CCCOC)ccc1O (stereo not drawn)
4) Cc1ccc(-c2nn3c(C)nnc3s2)cc1N
5) c1ccc(OCc2nn3c(Cn4nnc5ccccc54)nnc3s2)cc1
6) COc1ccc(NC(=O)Cc2ccc(Cl)cc2)cc1NC(=O)c1ccco1
entry no.	1	2	3	4	5	6
UbGFP stabilizer	3%	0%	14%	-1%	-1%	6%
Tau fil binding	?	39%	-10%	-11%	-13%	8%
Pol III holo inh	-7%	-13%	-6%	-2%	-1%	0%
ERK AVP block	-13%	?	0%	-6%	-7%	-19%
CRE-bla Fsk	-20%	?	21%	27%	0%	-12%
15-hLO inh	13µM*	?	5%	-2%	?	-3%
Hsp90 Hop PPI	-15%	?	-2%	-6%	-6%	-1%
FLuc inh	25µM*	5%	0%	4%	-2%	0%
GFP derepression	-3%	4%	3%	3%	0%	4%
HBB splice mod	-0.1%[57.5 µM]	9.9%[0.369 µM]	8.6%[1.84 µM]	-0.8%	-2.5%[57.5 µM]	0.0%

# A second format for some results above:
# Sequence of screens – UbGFP stabilizer | Tau fil binding | Pol III holo inh | ERK AVP block | CRE-bla Fsk | 15-hLO inh | Hsp90 Hop PPI | FLuc inh | GFP derepression | HBB splice mod
[3] CCOc1cc(C2/C(=C(/O)c3ccc(OC(C)C)cc3)C(=O)C(=O)N2CCCOC)ccc1O (stereo not drawn)
 : 14% | -10% | -6% | 0% | 21% | 5% | -2% | 0% | 3% | 8.6%[1.84 µM]
[6] COc1ccc(NC(=O)Cc2ccc(Cl)cc2)cc1NC(=O)c1ccco1
 : 6% | 8% | 0% | -19% | -12% | -3% | -1% | 0% | 4% | 0.0%
[2] CC(C)OCCCN1C(=O)c2[nH]nc(-c3ccccc3O)c2C1c1cccc(Cl)c1 (stereo not drawn)
 : 0% | 39% | -13% | ? | ? | ? | ? | 5% | 4% | 9.9%[0.369 µM]

# Other results.
7) Cc1ccccc1CN1C(=O)C(O)(CC(=O)c2ccncc2)c2ccccc21 (stereo not drawn)
8) COc1ccc(-c2nn(C)c3sc(C(=O)NCc4ccco4)cc23)cc1OC
9) Oc1c(C(c2ccco2)N2CCN(C(c3ccccc3)c3ccccc3)CC2)sc2ncnn12 (stereo not drawn)
10) CNC(=O)c1cc2c(=O)n3cc(C)ccc3nc2n(C(C)C)c1=N
11) CCOCC(=O)Nc1nnc(C2CCCCC2)s1
12) COc1ccc(Cl)cc1-n1c(N)c(C(N)=O)sc1=S
entry no.	7	8	9	10	11	12
UbGFP stabilizer	1%	-1%	5%	-2%	0%	.
Tau fil binding	-1%	i	78%	i	-8%	6%
Pol III holo inh	-4%	-21%	-7%	-16%	-4%	1%
ERK AVP block	-22%	20%	.	4%	10%	-13%
CRE-bla Fsk	?	?	10µM*	13µM*	7%	19%
15-hLO inh	-14%	-17%	4%	-27%	-14%	-20%
Hsp90 Hop PPI	-4%	6%	0%	-4%	-1%	-6%
FLuc inh	3%	-2%	0%	2%	-1%	1%
GFP derepression	2%	3%	.	1%	0%	0%
HBB splice mod	-0.9%[9.22 µM]	-1.8%	0.5%	0.8%[57.5 µM]	6.6%	3.3%[0.369 µM]

13) CO/N=C(\C(=O)N[C@@H]1C(=O)N2C(C(=O)[O-])=C(C[N+]3(C)CCCC3)CS[C@@H]12)c1csc(N)n1
14) CC(C)(C)N(Cc1ccccc1)C(=O)c1ccc2c(c1)OCCO2
15) CCNc1ncc2nc(-c3ccc(OC)cc3)c(=O)n(Cc3cccs3)c2n1
16) Cn1c(SCCOc2cccc(Cl)c2)nnc1-c1ccncc1
17) Oc1c(C(c2ccco2)N2CCOCC2)sc2ncnn12 (stereo not drawn)
18) CN1CCN(C(=S)c2ccc(N(C)C)cc2)CC1
entry no.	13	14	15	16	17	18
UbGFP stabilizer	3%[20.5 µM]	.	-3%	1%	-7%	5%
Tau fil binding	-2%[25.6 µM]	146%	218%	-20%	-7%	1%
Pol III holo inh	-7%[25.6 µM]	-13%	-6%	2%	-2%	-2%
ERK AVP block	11%[25.7 µM]	-21%	-3%	0%	.	-10%
CRE-bla Fsk	5%[17.1 µM]	?	?	1%	8%	1%
15-hLO inh	11%[25.6 µM]	-6%	4%	7%	-6%	-10%
Hsp90 Hop PPI	0%[26 µM]	-3%	0%	-2%	0%	-1%
FLuc inh	2%[25.5 µM]	0%	0%[11.4 µM]	-2%	-3%	-1%
GFP derepression	0%[20.6 µM]	0%	2%[9.22 µM]	0%	.	6%
HBB splice mod	-0.6%[20.6 µM]	2.5%[0.369 µM]	3.5%	-3.6%	-0.5%	6.9%

19) CCOC(=O)c1ccccc1NC(=O)c1cccnc1
20) c1ccc(CCc2nn3c(-c4ccncc4)nnc3s2)cc1
21) O=C(NCCN1CCOCC1)c1cc2ccccc2[nH]1
22) CCn1cc(S(=O)(=O)CC(=O)Nc2ccc3c(c2)OCCO3)c2ccccc21
23) COC(=O)c1cc2ccsc2n1Cc1cc(=O)n2ccccc2n1
24) CC1(C)CC(=O)c2sc(NS(=O)(=O)Cc3ccccc3)nc2C1
entry no.	19	20	21	22	23	24
UbGFP stabilizer	.	9%	-2%	-6%	-7%	1%
Tau fil binding	.	-3%	30%	2%	7%	-5%
Pol III holo inh	.	-6%	1%	-4%	-1%	2%
ERK AVP block	.	-14%	-27%	3%	-21%	-10%
CRE-bla Fsk	.	-17%	-6%	-6%	15%	?
15-hLO inh	2%	4%	4%	-18%	-13%	-18%
Hsp90 Hop PPI	.	-15%	0%	-6%	-1%	-6%
FLuc inh	.	-1%	0%	-7%	0%	-4%
GFP derepression	.	0%	6%	0%	0%	7%
HBB splice mod	.	0.2%	-1.3%	-0.3%	-0.4%	0.5%

25) COc1cccc(C(=O)NCC(c2cccnc2)N2CCN(c3ccccc3OC)CC2)c1 (stereo not drawn)
26) COc1cc2nc(=S)n3[nH]c(CCn4c(C)nc5ccccc54)nc3c2cc1OC
27) O=C(CSc1ccccn1)c1ccc(F)cc1
28) N=c1c(C(=O)NCc2ccco2)cc2c(=O)n3ccccc3nc2n1CCc1ccccc1
29) O=C(c1ccccc1)C(Sc1ncn[nH]1)c1ccccc1 (stereo not drawn)
30) COC(=O)c1cc2oc(C)cc2n1CC(=O)Nc1ccc(OC)c(OC)c1OC
entry no.	25	26	27	28	29	30
UbGFP stabilizer	5%	13%	12%	8%	9%[9.17 µM]	5%
Tau fil binding	121%	0%	-13%	0.63µM*	10%[11.4 µM]	4%
Pol III holo inh	-3%	-6%	2%	-16%	-1%[11.4 µM]	3%
ERK AVP block	.	10%	0%	?	-15%	-3%
CRE-bla Fsk	?	1%	-1%	?	?	3%
15-hLO inh	13µM*	11%	-30%	13µM*	?	0%
Hsp90 Hop PPI	-9%	2%	2%	-11%	-3%[11 µM]	-4%
FLuc inh	1%	0%	-7%	-10%	-4%	2%
GFP derepression	.	9%	2%	-2%	0%	2%
HBB splice mod	-1.2%	1.5%	0.0%	-4.7%	0.7%[0.0738 µM]	0.1%

31) O=S(=O)(c1ccc(Cl)c(F)c1)N1CCC(c2nc(-c3ccncc3)no2)CC1
32) COc1ccc(CNC(=O)c2noc3c2CCCC3)cc1
33) CCOC(=O)C1=C(C)NC2=C(C(=O)CC(c3ccc(OC)c(OC)c3)C2)C1c1ccc(C)o1 (stereo not drawn)
34) CC(C)CCn1c(SCC#N)nc2c(sc3ccccc32)c1=O
35) COc1ccc(-c2cn3c(C)c(C(=O)Nc4cc(NC(C)=O)ccc4OC)sc3n2)cc1
36) Cc1nc2cc(S(=O)(=O)N3CCC(C(=O)O)CC3)ccc2n1C1CCCC1
37) Fc1ccc(CSc2nnc(-c3cnccn3)n2Cc2ccco2)cc1
38) CN(Cc1ccccc1)C(=O)c1ccc2c(c1)OCCO2
entry no.	31	32	33	34	35	36	37	38
UbGFP stabilizer	2%	-2%	-8%	-3%	-5%	.	2%	5%
Tau fil binding	7%	-3%	-1%	-22%	88%	.	7%	9%
Pol III holo inh	2%	-3%	0%	2%	4%	.	-8%	1%
ERK AVP block	-1%	7%	15%	2%	7%	.	?	-5%
CRE-bla Fsk	?	23%	?	0.4µM*	?	.	7%	7%
15-hLO inh	1%	4%	-5%	6%	-12%	-2%	-30%	-6%
Hsp90 Hop PPI	-1%	5%	?	0%	-10%	.	-7%	1%
FLuc inh	-2%	-1%	2%	1%	-6%	.	-4%	1%
GFP derepression	3%	-1%	0%	-3%	2%	.	0%	7%
HBB splice mod	.	-2.2%	.	-0.5%	-0.1%	.	-1.8%	2.0%
